Assay outcomes as filed in PubChem BioAssay.
FGF22 binding: shifts melting point of recombinant human FGF22 | Q9HCT0 | recombinant FGF22 thermal shift, SYPRO orange fluorescence; percent of sucrose octasulfate shift, DMSO zero | calls only at 9.99 µM | 340,000 compounds, 1.5% hits | AID 651658;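 active means melting point raised past a set limit in the mean and every replicate; three in four hits are not shown here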
Target sequence (Q9HCT0 whole entry, looked up): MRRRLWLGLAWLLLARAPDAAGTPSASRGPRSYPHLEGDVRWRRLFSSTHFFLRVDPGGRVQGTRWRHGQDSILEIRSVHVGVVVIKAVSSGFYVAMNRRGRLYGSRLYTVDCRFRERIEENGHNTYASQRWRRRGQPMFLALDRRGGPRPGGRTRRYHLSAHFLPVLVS
Calls only; i = inactive; + = active, no number.

FGF22 binding,mol
i,C[C@H]1CCCCO[C@H](CN(C)CC2CCCCC2)[C@@H](C)CN([C@@H](C)CO)C(=O)c2cc(NS(=O)(=O)c3cccs3)ccc2O1
i,CCC(=O)Nc1ccc2c(c1)C(=O)N(C)C[C@@H](OC)[C@H](C)CN(C(=O)c1cnccn1)[C@H](C)CO2
i,O=C(C[C@@H]1CC[C@H]2[C@@H](COC[C@@H](O)CN2S(=O)(=O)c2ccc(F)cc2)O1)N[C@@H]1CCN(Cc2ccccc2)C1
i,Cc1ccc(NCN2C(=O)c3ccccc3C2=O)c(C)n1
i,C[C@H]1CN([C@@H](C)CO)C(=O)c2cc(NC(=O)CCC(F)(F)F)ccc2O[C@@H]1CN(C)Cc1ccc(C(=O)O)cc1
i,C[C@@H]1CN([C@H](C)CO)S(=O)(=O)c2ccc(C#CC(C)(C)O)cc2O[C@H]1CN(C)Cc1ccncc1
i,CC(=O)N[C@@H]1C=C[C@@H](CC(=O)NCC2CCCCC2)O[C@@H]1CO
i,COc1ccc(NC(=O)Nc2ccc3c(c2)CC(=O)N([C@H](C)CO)C[C@H](C)[C@H](CN(C)S(=O)(=O)c2ccccc2)O3)cc1
+,C[C@@H]1CCCCO[C@H](CN(C)C(=O)Nc2ccc(C(F)(F)F)cc2)[C@@H](C)CN([C@H](C)CO)C(=O)c2cc(NS(=O)(=O)c3cn(C)cn3)ccc2O1
i,C[C@H](CO)N1C[C@H](C)[C@H](CN(C)C(=O)Nc2ccccc2)Oc2ncc(-c3cc4ccccc4o3)cc2C1=O
i,CO[C@@H]1CN(C)C(=O)c2ccc(NC(C)=O)cc2OC[C@@H](C)N(C(=O)CC2CC2)C[C@H]1C
i,Cc1cc(C(=O)Nc2cccc3c2O[C@@H](CN(C)Cc2ccc(-c4ccccc4)cc2)[C@H](C)CN([C@H](C)CO)C3=O)n(C)n1

Later entries.
FGF22 binding,mol
i,C[C@@H]1CN([C@H](C)CO)C(=O)c2cc(-c3ccccc3)cnc2O[C@@H]1CN(C)Cc1ccccc1
i,CCC(=O)N1CC2(C1)CN(Cc1ccc(Cl)cc1)[C@@H](CO)c1[nH]c3cc(OC)ccc3c12
i,C[C@H](CO)N1C[C@H](C)[C@H](CN(C)C(=O)[C@H](Cc2ccccc2)N(C)C)OCc2ccccc2-c2ccccc2C1=O
i,C[C@H](CO)N1C[C@H](C)[C@H](CN(C)Cc2ccccc2)Oc2ccc(NC(=O)Nc3ccccc3)cc2CC1=O
i,CC(=O)N1[C@H](C(=O)NCc2ccccc2Cl)[C@@H](CO)[C@@H]2Cn3c(ccc(-c4ccncc4)c3=O)[C@@H]21
i,C[C@@H]1CCCCO[C@H](CN(C)Cc2ccc(C(F)(F)F)cc2)[C@H](C)CN([C@H](C)CO)C(=O)c2cc(NC(=O)C3CCCCC3)ccc2O1
i,C[C@@H]1CN([C@@H](C)CO)C(=O)Cc2cc(N(C)C)ccc2O[C@@H]1CN(C)Cc1ccccc1
i,O=C(/C=C(\Nc1ccccc1)c1ccccc1)c1ccccc1
i,CNC[C@@H]1Oc2ccc(NC(=O)C3CC3)cc2C(=O)N([C@@H](C)CO)C[C@@H]1C
i,O=C(CCN1CCCCC1)N[C@@H]1CC[C@@H](CCn2cc(-c3cccc(F)c3)nn2)O[C@@H]1CO
i,Cc1cccc(S(=O)(=O)N2[C@@H]3c4cccc(=O)n4C[C@H]2[C@H](CO)[C@H]3C(=O)NC2CCC2)c1
i,CN(C)CC#Cc1ccc([C@H]2[C@@H](CO)N3CCCCN(C(=O)Nc4ccc(F)cc4)C[C@@H]23)cc1

Other structures
FGF22 binding,mol
i,CO[C@@H]1CN(C)C(=O)c2ccc(NC(C)=O)cc2OC[C@@H](C)N(Cc2ccccn2)C[C@@H]1C
i,N#C[C@@H]1[C@H](c2ccccc2-c2ccccc2)[C@@H](CO)N1C(=O)Cc1ccncc1
i,CC(C)NC(=O)Nc1ccc2c(c1)C(=O)N([C@@H](C)CO)C[C@H](C)[C@H](CN(C)C(=O)Nc1ccccc1)OCCCC[C@H](C)O2
i,O=C(NCCc1ccccc1)[C@@H]1[C@@H](CO)[C@@H]2Cn3c(cccc3=O)[C@H]1N2Cc1ccccn1
i,CC(C)NC(=O)Nc1ccc2c(c1)C(=O)N([C@@H](C)CO)C[C@H](C)[C@@H](CN(C)Cc1ccc3c(c1)OCO3)OCCCC[C@H](C)O2
i,C[C@@H]1CCCCO[C@@H](CN(C)Cc2ccc(Cl)c(Cl)c2)[C@@H](C)CN([C@H](C)CO)C(=O)c2cc(NC(=O)c3ccncc3)ccc2O1
i,N#C[C@@H]1[C@@H](c2ccc(C3=CCCC3)cc2)[C@@H](CO)N1C(=O)C1CCCC1
i,COc1ccc(NC(=O)N(C)C[C@@H]2OCCCC[C@@H](C)Oc3ccc(NS(=O)(=O)c4ccc(Cl)cc4)cc3C(=O)N([C@@H](C)CO)C[C@@H]2C)cc1
i,Cc1noc(C)c1S(=O)(=O)N(C)C[C@H]1Oc2ccc(NC(=O)Cc3ccccc3)cc2CC(=O)N([C@H](C)CO)C[C@@H]1C
i,O=C([C@H]1[C@H](CO)[C@H]2Cn3c(ccc(-c4ccccc4F)c3=O)[C@@H]1N2C(=O)C1CCC1)N1CCCCC1
i,COc1ccc2c3c([nH]c2c1)[C@@H](CO)N(C(=O)Nc1c(C)noc1C)CC31CN(CC2CCCCC2)C1
i,Cc1ccc(S(=O)(=O)Nc2cccc3c2O[C@@H](CN(C)C(=O)NC2CCCCC2)[C@@H](C)CN([C@H](C)CO)C3=O)cc1

Carrying on:
FGF22 binding,mol
i,O=C(C[C@@H]1C[C@@H]2c3cc(NC(=O)Nc4ccccc4F)ccc3O[C@@H]2[C@@H](CO)O1)NCc1cc(F)ccc1F
i,COc1ccc(OC(=O)N(C)C[C@@H]2OCc3ccccc3-c3ccccc3C(=O)N([C@@H](C)CO)C[C@H]2C)cc1
i,CC(C)NC(=O)Nc1ccc2c(c1)C(=O)N([C@H](C)CO)C[C@@H](C)[C@@H](CN(C)CC1CCCCC1)OCCCC[C@H](C)O2
i,O=C(C[C@H]1C[C@@H]2c3cc(NS(=O)(=O)c4ccccc4)ccc3O[C@@H]2[C@@H](CO)O1)NCC1CC1
i,CC(C)CC#Cc1ccc2c(c1)O[C@@H](CN(C)C(=O)NC1CCCC1)[C@@H](C)CN([C@H](C)CO)S2(=O)=O
i,C[C@H]1CN([C@@H](C)CO)C(=O)c2cc(C#CCN(C)C)cnc2O[C@H]1CN(C)C(=O)Cc1ccncc1
i,CN(C)C(=O)c1ccc(-c2ccc3c(c2)[C@H]2[C@H](CCN2C(=O)C2CCC2)[C@@H](CO)N3C)cc1
i,C[C@H](CO)N1C[C@H](C)[C@@H](CN(C)Cc2ccc(Cl)c(Cl)c2)OCCCC[C@H](C)Oc2ccc(NS(=O)(=O)c3ccccc3)cc2C1=O
i,C[C@H]1CN([C@@H](C)CO)C(=O)Cc2cc(NC(=O)C3CC3)ccc2O[C@H]1CN(C)S(=O)(=O)c1cccs1
i,CN(C)CC(=O)N1[C@H](C(=O)NC2CCC2)[C@@H](CO)[C@@H]2Cn3c(ccc(-c4ccc(F)cc4)c3=O)[C@@H]21
i,C[C@@H]1CCCCO[C@H](CN(C)C(=O)Nc2ccc3c(c2)OCO3)[C@@H](C)CN([C@H](C)CO)C(=O)c2cc(NC(=O)c3ccncc3)ccc2O1
i,COc1ccc(NC(=O)Nc2ccc3c(c2)C(=O)N([C@H](C)CO)C[C@H](C)[C@H](CN(C)S(=O)(=O)c2ccccc2)OCCCC[C@H](C)O3)cc1

Next section:
FGF22 binding,mol
i,Cc1ccccc1S(=O)(=O)N[C@@H]1CC[C@@H](CCn2cc(-c3ccccc3)nn2)O[C@H]1CO
i,COc1ccc2c3c(n(C)c2c1)[C@H](CO)N(CC1CC1)CC31CN(C(=O)NC2CCCC2)C1
i,C[C@@H]1CN([C@@H](C)CO)C(=O)c2cc(NC(=O)Cn3cnnn3)ccc2O[C@@H]1CN(C)C(=O)Nc1cccc2ccccc12
i,Cc1ccc(-c2cnc3c(c2)C(=O)N([C@H](C)CO)C[C@H](C)[C@@H](CN(C)C)O3)cc1
i,C[C@H]1CN([C@@H](C)CO)C(=O)c2cc(C3=CCCC3)cnc2O[C@H]1CN(C)C(=O)c1ccc2c(c1)OCO2
i,COc1ccc(-c2ccc3n(c2=O)C[C@H]2[C@H](CO)[C@@H](C(=O)N(C)C)N(CC4CCOCC4)[C@@H]32)cc1
i,CNC(=O)C[C@H]1CC[C@H]2[C@H](COc3ccc(NC(=O)c4ccc(F)c(F)c4)cc3C(=O)N2C)O1
i,O=C(NCC1CC1)[C@@H]1[C@@H](CO)[C@@H]2Cn3c(ccc(C4=CCCC4)c3=O)[C@@H]2N1C(=O)C1CC1
i,CNC[C@@H]1Oc2ccc(NC(=O)CCC(F)(F)F)cc2C(=O)N([C@@H](C)CO)C[C@H]1C
i,COCC(=O)Nc1ccc2c(c1)C(=O)N(C)C[C@H](OC)[C@@H](C)CN(C(C)=O)[C@@H](C)CO2
i,Cc1noc(C)c1NC(=O)Nc1ccc2c(c1)C(=O)N([C@@H](C)CO)C[C@H](C)[C@@H](CN(C)Cc1ccncc1)O2
i,C[C@H](CO)N1C[C@H](C)[C@@H](CN(C)C(=O)Nc2ccc(C(F)(F)F)cc2)OCCCC[C@H](C)Oc2ccc(NS(=O)(=O)c3cn(C)cn3)cc2C1=O

Next compounds.
FGF22 binding,mol
i,CC(C)NC(=O)Nc1cccc2c1O[C@H](CN(C)Cc1ccc(Cl)c(Cl)c1)[C@H](C)CN([C@@H](C)CO)C2=O
i,CC(C)NC(=O)N(C)C[C@H]1Oc2c(NC(=O)C3CCOCC3)cccc2C(=O)N([C@H](C)CO)C[C@H]1C
i,CO[C@H](CN(C)C(=O)c1ccccc1F)[C@@H](C)CN([C@H](C)CO)S(=O)(=O)c1ccc(F)cc1
i,CO[C@H]1CN(C)C(=O)c2cc(NC(=O)Nc3ccccc3)ccc2OC[C@H](C)N(C(C)=O)C[C@H]1C
i,C[C@@H]1CN([C@@H](C)CO)C(=O)c2cc(NS(=O)(=O)c3ccccc3)ccc2O[C@@H](C)CCCCO[C@@H]1CN(C)Cc1ccc(C(=O)O)cc1
i,COc1ccc(-c2cnc3c(c2)C(=O)N([C@H](C)CO)C[C@H](C)[C@H](CN(C)Cc2ccccn2)O3)cc1
i,CS(=O)(=O)Nc1ccc2c(c1)[C@@H]1C[C@H](CC(=O)NCc3ccccn3)O[C@H](CO)[C@@H]1O2
i,CC(C)NC(=O)Nc1ccc2c(c1)C(=O)N([C@H](C)CO)C[C@H](C)[C@@H](CN(C)C(=O)Nc1ccc(F)cc1)O2
i,O=C(C[C@@H]1CC[C@@H](NC(=O)Nc2ccccc2F)[C@H](CO)O1)NCc1ccc(-c2ccccc2)cc1
i,CC(=O)N[C@H]1CC[C@H](CCNC(=O)Nc2ccc(C(F)(F)F)cc2)O[C@@H]1CO
i,C[C@H](CO)N1C[C@H](C)[C@@H](CN(C)Cc2ccc(C(=O)O)cc2)Oc2c(NS(C)(=O)=O)cccc2C1=O
i,Cc1ccc(S(=O)(=O)N[C@H]2C=C[C@@H](CC(=O)NC3CCCCC3)O[C@@H]2CO)cc1

Going on with the list:
FGF22 binding,mol
i,C[C@@H]1CN([C@H](C)CO)S(=O)(=O)c2ccc(C#CCN(C)C)cc2O[C@H]1CN(C)C(=O)C1CCC1
i,CN(C)C(=O)[C@@H]1[C@@H](CO)[C@@H]2Cn3c(ccc(-c4ccccc4F)c3=O)[C@@H]2N1C(=O)C1CC1
i,C[C@H]1CCCCO[C@@H](CN(C)C(=O)Nc2ccccc2)[C@@H](C)CN([C@@H](C)CO)C(=O)c2cc(NS(=O)(=O)c3cccs3)ccc2O1
i,CCCC(=O)Nc1ccc2c(c1)OC[C@@H](C)N(C(=O)c1cnccn1)C[C@@H](C)[C@@H](OC)CN(C)C2=O
i,CCCNC(=O)N1C[C@H]2[C@@H](c3ccccc31)[C@@H](CO)N2Cc1ccc(F)cc1
i,CN1C(=O)c2cc(NC(=O)c3cccc(C(F)(F)F)c3)ccc2OC[C@@H]2O[C@@H](CC(=O)O)CC[C@@H]21
i,C[C@H]1CN([C@@H](C)CO)C(=O)Cc2cc(NC(=O)CCN3CCOCC3)ccc2O[C@H]1CN(C)C(=O)Nc1cccc2ccccc12
i,COc1ccc(NC(=O)Nc2ccc3c(c2)C(=O)N([C@@H](C)CO)C[C@H](C)[C@@H](CN(C)Cc2ccc(Cl)c(Cl)c2)O3)cc1
i,O=C(Cc1ccccn1)NCC[C@@H]1CC[C@H](NC(=O)Nc2ccccc2)[C@@H](CO)O1
i,C[C@@H]1CN([C@H](C)CO)C(=O)Cc2cc(NC(=O)Nc3ccc(C(F)(F)F)cc3)ccc2O[C@H]1CN(C)C(=O)Nc1cccc2ccccc12

These rows are one share of the data; count on the stated rates, not on these rows.
